Cruzain inh noDet – cruzain (T. cruzi) inhibition without detergent; P25779; purified cruzain, Z-FR-AMC fluorescence, no detergent; Potency, µM, inactives show max response, negative = inhibition, actives largely listed as inhibitors; actives 2.3% (n = 200,000);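 note: plate controls were enzyme without inhibitor for no effect and buffer without enzyme for full effect; nearly all actives have a fitted effect of over 40% in size; top concentration of the series not given in the record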
Target sequence (P25779 123-467 limits assumed): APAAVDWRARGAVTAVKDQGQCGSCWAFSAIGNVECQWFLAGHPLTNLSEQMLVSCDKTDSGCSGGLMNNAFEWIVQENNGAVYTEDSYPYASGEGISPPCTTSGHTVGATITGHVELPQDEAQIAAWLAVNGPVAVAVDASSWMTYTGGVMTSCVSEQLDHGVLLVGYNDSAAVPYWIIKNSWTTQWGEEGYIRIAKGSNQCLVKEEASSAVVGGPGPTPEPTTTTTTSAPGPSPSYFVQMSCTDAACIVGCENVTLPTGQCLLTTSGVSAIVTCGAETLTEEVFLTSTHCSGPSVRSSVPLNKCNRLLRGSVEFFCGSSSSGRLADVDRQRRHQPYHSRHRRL
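Detergent-free condition (0.00005% Triton X-100) in acetate buffer pH 5.5 with DTT. 1.5 nM enzyme and compound were pre-mixed 15 min, then 2 uM Z-FR-AMC substrate added; reaction progress from fluorescence change between first and third reads (60 s).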
MARV entry inh – blocks Marburg virus binding to or entry into cells | Marburg virus pseudotyped entry inhibition, cell reporter; control for the full effect not named in the record; about a third of the inactives were read at about 46 µM | Potency, µM (highest dose often 37.8 µM), inactives show top-dose activity change, negative = inhibition, actives largely listed as inhibitors | actives 1.8% (n = 300,000); active = well fitted inhibition curve with a large enough effect; inconclusive = small, poorly fitted or top-dose-only effect, or effect the other way; inactive = flat fitted curve, though single readings scatter; tested in HEK293 cells; about a fifth of its hits are not listed in these tables; note: % is set by controls: 0 for no effect and ±100 for the full control effect; luciferase read-out
2A StopGo – lowers the luciferase signal of an FMDV 2A StopGo reporter; human cells with a luciferase reporter of 2A StopGo recoding; control for the full effect not named in the record; Potency, µM (doses to about 57.9 µM), without a hit: at the top dose signal change, negative = less light; actives 1.2% (n = 410,000); AID 1159524; active = well fitted falling curve with a large enough effect; inconclusive = small, poorly fitted or top-dose-only effect; inactive = no such curve, though single readings can be large or run the other way; tested in HEK293T cells; note: % is set by controls: 0 for no effect and ±100 for the full control effect; nearly all actives have a fitted effect of over 45% in size; luciferase light after 4 h
SARS PLP yeast – SARS-CoV PLP inhibition in yeast; AID 485353; Potency, µM (highest dose often 32.9 µM), without a hit: top-dose activity, positive = growth rescue; actives 0.19% (n = 330,000); S. cerevisiae expressing SARS-CoV PLpro, growth rescue; control for the full effect not named in the record; active means well fitted rising curve with a large enough effect; inconclusive means small, poorly fitted or top-dose-only effect; inactive means no such curve, though single readings can be large or run the other way; note: 0% is about no effect; nearly all actives have a fitted effect of over 55% in size; growth read by luminescence after 48 h
NS1 inh – influenza NS1 inhibition; actives 0.4% (n = 270,000); Potency, µM (doses to about 46.1 µM), without a hit: at the top dose activity, positive = more growth; S. cerevisiae slowed by influenza A NS1, growth recovery by OD600; active means well fitted rising curve with a large enough effect; inconclusive means small, poorly fitted or top-dose-only effect; inactive means no such curve, though single readings can be large or run the other way; note: nearly all actives have a fitted effect of over 50% in size
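S. cerevisiae expressing influenza A NS1, grown in glucose, washed, then diluted 1:100 into pH 6.0 -URA galactose medium with 23 nl compound. Growth recovery read as OD600; NS1-free strain serves as control.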
Cruzain inh Det – cruzain (T. cruzi) inhibition with detergent | actives 0.43% (n = 200,000) | P25779 | Potency, µM, inactives show max response, negative = inhibition, most hits filed as inhibitors | purified cruzain, Z-FR-AMC fluorescence, 0.01% Triton;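 note: plate controls were neutral wells for no effect and buffer without enzyme for full effect; nearly all actives have a fitted effect of over 40% in size; top concentration of the series not given in the record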
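Detergent-containing arm of a paired screen for aggregation-based inhibition: 0.01% Triton X-100 present. Cruzain at 1.5 nM cleaved 2 uM Z-FR-AMC at pH 5.5 with 5 mM DTT; AMC fluorescence gain over 60 s measured activity.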
RE007 growth inh – less growth of the S. pombe RE007 Vpr strain; S. pombe RE007 Vpr strain, BacTiter-Glo ATP luminescence, 24 h; control for the full effect not named in the record; Potency, µM (top dose mostly 92.2 µM), for the others: at the top dose activity change, negative = less growth; actives 0.21% (n = 360,000); AID 651644; active = well fitted falling curve with a large enough effect; inconclusive = small, poorly fitted or top-dose-only effect; inactive = no such curve, though single readings can be large or run the other way;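 note: % is set by controls: 0 for no effect and ±100 for the full control effect; nearly all actives have a fitted effect of over 50% in size; the assay follows cell death caused by Vpr and the record does not say whether a fall means rescue or toxicity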
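Fission yeast strain RE007, carrying one chromosomally integrated HIV-1 vpr copy, was seeded at OD 0.01 in PMG+AL medium with 23 nL pinned compound. After 24 h at 30 °C and 99% humidity, viability was read by BacTiter-Glo luminescence.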
LASV entry inh – inhibitors of Lassa virus binding or cell entry. Lassa virus pseudotype entry inhibition, cell reporter; control for the full effect not named in the record. Potency, µM (doses to about 37.9 µM), for inactives: top-dose activity change, negative = inhibition, actives largely listed as inhibitors. actives 1.2% (n = 300,000). AID 540256; active means well fitted inhibition curve with a large enough effect; inconclusive means small, poorly fitted or top-dose-only effect, or effect the other way; inactive means flat fitted curve, though single readings scatter; tested in HEK293 cells; note: % is set by controls: 0 for no effect and ±100 for the full control effect; nearly all actives have a fitted effect of over 50% in size; luciferase read-out
Starred values were filed as active, the others as inactive; u = inconclusive; x = no result given; [ ] = another dose, or the depositor's remark. Unless noted, calls come from the whole dose curve; as a rule, active = well fitted curve in the direction sought with a large enough effect; inconclusive = small, poorly fitted or top-dose-only effect, or another doubt; inactive = no such curve, though single readings can be large; an effect the other way counts as inactive or inconclusive. Potency is the fitted concentration of half-maximal effect.

mol	Cruzain inh noDet	MARV entry inh	2A StopGo	SARS PLP yeast	NS1 inh	Cruzain inh Det	RE007 growth inh	LASV entry inh
O=C(NNS(=O)(=O)c1ccccc1)c1cccs1	-3%	9%	42%[activator]	8%	-10%	0.6%	2%	19%
Cn1c(-c2cccc(Br)c2)cnc1NCc1cccnc1	-1%	-6%	-17%	-1%	1%	1.9%	-4%	-11%
COc1cc(/C=N/NC(=S)Nc2cccnc2)cc(OC)c1O	x	u	-10%	-4%	x	x	11%	5%
CCOC(=O)c1[nH]c2c(c1Cc1ccccc1OC)C(=O)CC(c1ccccc1)C2 (centres undefined)	12%	8%[46.1 µM]	3%	x	x	2.6%	x	-19%[46.1 µM]
O=C(COc1cccc2c1CCNC2=O)Nc1cccc(C(F)(F)F)c1	x	5%	-4%	0%	x	x	7%	-8%
Cc1c(C(=O)N2CCN(S(=O)(=O)c3ccc(F)cc3)CC2)oc2ccccc12	x	-19%	-12%	u	x	x	4%	3%
O=C(Nc1cccc(F)c1)c1ccc(S(=O)(=O)N2CCCC2)cc1	6%	x	-29%	8%	-38%	-5.4%	0%	x
CN=C1S/C(=C\c2ccc(OCC(=O)OC)c(OC)c2)C(=O)N1C	x	x	44%[activator]	-6%	-33%	x	-17%	x
COC(=O)c1c[nH]c(=S)n1Cc1ccccc1	x	8%[46.1 µM]	19%	x	x	x	-4%	2%[46.1 µM]
CSc1nc2sc3c(c2c(=O)n1-c1ccc(C)c(Cl)c1)CCN(C(C)=O)C3	-1%	-3%[46.1 µM]	0%	x	x	-0.1%	x	1%[46.1 µM]
CC(=O)c1ccc(NC(=O)CO/N=C(\C)c2cccs2)cc1	-5%	u	1%	-7%	-8%	-1.6%	-3%	4%
CCCN(CC(=O)Nc1ccc(Cl)cc1Cl)C(=O)c1ccc(=O)[nH]c1	x	5%[46.1 µM]	-17%	5%	3%	x	-3%	7%[46.1 µM]
Nc1nc(-c2ccccc2)c(-c2ccccc2)s1	2%	-8%	-20%	-12%	-114%	-0.2%	0%	u
CCS(=O)(=O)N1CCC2(CC1)OCCN2S(=O)(=O)c1ccc(C)cc1	x	21%	-15%	-8%	x	x	-12%	1%
Cc1ccc(S(=O)(=O)NC(C)(C)CSc2nnc(N)s2)cc1	-3%	1%[46.1 µM]	-28%	-4%	-44%	5.3%	-6%	13%
CC(CN1CCCCC1)NC(=O)c1cccs1 (centres undefined)	x	x	1%	-5%	1%	x	-6%	x
O=C(Nc1ccccc1C(=O)NCCCN1CCOCC1)c1ccc(F)cc1F	x	x	8%	3%	2%	x	-16%	x
COc1cc(-c2nnc3n2CCCCC3)cc(OC)c1OC	x	x	-6%	4%	1%	x	6%	x
O=C(c1ccc(F)cc1F)N(Cc1ccccn1)Cc1ccco1	0%	-5%	-14%	5%	1%	-0.6%	-10%	11%
O=C1SC(c2ccccc2)=N/C1=C/c1ccco1	u	u	12%	-2%	8%	-0.4%	0%	4%
CC(C)N1C(=O)CCC1C(=O)N1CCC2(CC1)OCCO2 (centres undefined)	11%	u	6%	5%	3%	3.4%	14%	-4%
Cc1ccc(C)c(OCCC(=O)Nc2cc(S(=O)(=O)N3CCCCC3)ccc2C)c1	x	0%[46.1 µM]	21%	-3%	x	x	1%	-22%[46.1 µM]
CC#CCCCC(=O)Nc1cc(OC)nc(OC)n1	-9%	-7%	11%	1%	-8%	2.1%	14%	17%
Cc1ccccc1S(=O)(=O)Cc1ccc(C(=O)N(C)C2CCCCC2)o1	x	x	2%	-5%	-13%	x	10%	x
Cc1cc(C)c2c(=O)n(CC(=O)NC3CCCC3)sc2n1	x	x	-10%	-4%	3%	x	-13%	x
COc1ccc2c(c1)c1c(c(=O)n(-c3ccc(C)cc3)c(=O)n1CC(=O)N1CCCC1)n2C	3%	x	-5%	x	x	-1.5%	x	u
CC(C)OC(=O)CSc1nc(N)c(C#N)c(-c2ccco2)c1C#N	-12%	-7%	u	-8%	20%	u	-5%	2%
O=C(CN(C1CCCCC1)S(=O)(=O)c1ccc(Cl)cc1)NCc1cccnc1	0%	-17%	24%	0%	-12%	-7.4%	3%	u
CN(C)CCCN=Cc1c(-c2ccccc2)[nH]n(-c2nc3ccccc3s2)c1=O	x	u	-19%	0%	8%	x	-3%	13%[46.1 µM]
CCOc1cc(-c2c(C)c(C)nc(N)c2C#N)ccc1O	8%	-27%	u	21%	-6%	-0.8%	29%	8%
CCn1cc(C(=O)NC(C)CCc2ccccc2)c(=O)c2cc(S(=O)(=O)N(C)C)ccc21 (centres undefined)	x	u	-14%	1%	-5%	x	11%	6.3µM*
CCc1ccc(S(=O)(=O)N2CCN(c3ccc(Cl)c(Cl)c3)CC2)cc1	0%	-11%[46.1 µM]	-23%	x	x	4.2%	x	u
Cc1ccc(N2CC(C(=O)Nc3c4c(nn3C(C)(C)C)CS(=O)(=O)C4)CC2=O)cc1C (centres undefined)	x	20%	-25%	1%	-3%	x	-3%	-1%
CC(=O)N1c2ccc(S(=O)(=O)NCC3CCC(C(=O)NCc4ccc(C)o4)CC3)cc2CC1C (centres undefined)	x	6%[46.1 µM]	27%	2%	-8%	x	1%	-2%[46.1 µM]
CCCC(C(=O)NC1CCCC1)N(Cc1ccccc1Cl)C(=O)c1snc(C(N)=O)c1N (centres undefined)	x	10µM*	17%	-1%	15%	x	8%	2%[46.1 µM]
Cc1c(CCC(=O)O)c(=O)oc2c(C)c(OCc3cc4c(cc3Cl)OCO4)ccc12	x	11%[46.1 µM]	-3%	1%	-7%	x	-11%	-1%
O=C(CN1CCN(Cc2ccc(Cl)cc2)C1=O)N1CCC2(CC1)OCCO2	-1%	15%	-2%	1%	-3%	3.0%	-5%	-3%
CCc1cccc(NC(=O)CSc2nc3ccccc3nc2N2CCCCC2)c1	-4%	x	-12%	x	x	-4.3%	x	u
COc1ccc2[nH]c3c(=O)n(CCN4CCOCC4)cnc3c2c1	x	u	7%	0%	0%	x	-12%	-4%
COc1cc(C(=O)Nc2sc(C(=O)N3CCOCC3)c(C)c2C#N)cc(OC)c1OC	-4%	11%	12%	1%	9%	4.1%	13%	24%
CSCCC1NC(=O)N(CC(=O)N2N=C(c3ccc(Cl)cc3)CC2c2ccco2)C1=O (centres undefined)	x	u	-10%	-1%	0%	x	-6%	u
O=C(Cc1ccccc1)N1CCN(C2CCCC2)CC1	3%	22%	3%	7%	-1%	3.6%	3%	0%
CN(CCOc1ccccc1)CC(=O)Nc1cccc(C#N)c1	x	-18%[46.1 µM]	3%	-3%	-13%	x	20%	2%
Cc1cc(=O)n(Cc2ccccc2)c2ccccc12	x	x	0%	1%	-8%	x	6%	x
COc1ccccc1N1C(=O)CC(N2CCN(c3ccc(F)cc3)CC2)C1=O (centres undefined)	x	x	-19%	1%	30%	x	-2%	x
CCOc1ccc2[nH]cc(C(=O)O)c(=O)c2c1	-5%	9%	x	-1%	-2%	-3.1%	8%	15%
O=C(NCC1CCCO1)c1nn2c(C(F)(F)F)cc(-c3cccs3)nc2c1Cl (centres undefined)	x	-9%[46.1 µM]	4%	9%	20%	x	11%	x
Cc1cc(C)c2c(=O)cc(CSCC(=O)Nc3ccccc3Cl)[nH]c2c1	0%	x	-23%	x	x	2.0%	x	-13%[46.1 µM]
CCCNC(=O)c1cc2cc([N+](=O)[O-])ccc2s1	x	-3%[46.1 µM]	-17%	0%	6%	x	-24%	-3%[46.1 µM]
COc1ccc(C(=O)O)cc1NC(=S)NC(=O)CSc1ccc(Cl)cc1	x	4%	-29%	0%	8%	x	10%	-4%

Next part:
mol	Cruzain inh noDet	MARV entry inh	2A StopGo	SARS PLP yeast	NS1 inh	Cruzain inh Det	RE007 growth inh	LASV entry inh
COc1ccc(OC)c(CN2CCCC(C(=O)c3sccc3C)C2)c1 (centres undefined)	x	x	-18%	0%	-6%	x	-2%	x
O=[N+]([O-])c1ccc(NC(=S)N2CCN(c3ccc(F)cc3)CC2)cc1	-9%	-5%	29%	u	7%	-4.1%	2%	u
CCCCc1cc(=O)oc2cc(OCC(=O)NCC3CCC(C(=O)O)CC3)ccc12 (centres undefined)	x	x	-1%	11%	27%	x	-15%	x
CC(NC(=O)CNC(=O)c1sc2ccccc2c1Cl)c1ccc(S(N)(=O)=O)cc1 (centres undefined)	x	-5%	11%	-1%	x	x	1%	1%
CC(=O)Nc1ccc(CCc2nc3ccccc3[nH]2)cc1	x	u	19%	5%	1%	x	4%	2%
COc1ccc(C(=O)NCc2nnc(SCC(=O)Nc3nnc(C)s3)o2)cc1OC	x	x	-17%	-1%	-4%	x	9%	x
COc1ccc(S(=O)(=O)N2CCCN(CC(=O)Nc3ccc(OC)c(Cl)c3)CC2)cc1	-5%	0%	-7%	-3%	-33%	3.3%	32%	7%
COc1cc(C)nc(N2CCCC(C(=O)Nc3ccccc3Br)C2)n1 (centres undefined)	x	-10%	-15%	1%	-1%	x	-10%	-9%
Cc1ccc(S(=O)(=O)c2nc(-c3ccccc3Cl)oc2N(C)C)cc1	x	-28%	25%	2%	5%	x	-18%	u
Cc1ccc(Cl)cc1NC(=O)c1cc(NC(=O)CCCC(=O)O)ccc1N1CCCCC1	x	24%	-15%	0%	-8%	x	31%	-7%
COC(=O)c1ccc(Cn2cc(Cl)cn2)cc1	0%	14%	12%	6%	-16%	1.0%	u	-10%
O=C(Nc1ccc(F)c([N+](=O)[O-])c1)c1ccc2c(c1)OCCO2	x	u	-13%	4%	1%	x	7%	u
COC(=O)c1cccc(Nc2c(-c3ccc(OC)cc3)nc3nc[nH]n23)c1	-3%	x	43%[activator]	x	x	-2.5%	x	-6%[46.1 µM]

Compound activity deposited in PubChem BioAssay by National Center for Advancing Translational Sciences (NCATS).
